# VACV mCherry inh – vaccinia inhibition (mCherry reporter); Vaccinia virus mCherry reporter infection, fluorescence; about a quarter of the inactives have no number; Potency, µM (doses to about 36.5 µM), for the others: top-dose activity change, negative = inhibition, most hits filed as inhibitors; hit rate 0.63% among 310,000; AID 720579; active = well fitted inhibition curve with a large enough effect; inconclusive = small, poorly fitted or top-dose-only effect; inactive = no such curve, though single readings can be large or run the other way; tested in A549 cells; further: nearly all actives have a fitted effect of over 35% in size; inactives centre near -10
# VACV Venus inh – inhibitors of vaccinia virus (Venus reporter). Vaccinia virus Venus reporter expression, fluorescence. Potency, µM (doses to about 36.5 µM), without a hit: top-dose activity change, negative = inhibition, actives largely listed as inhibitors. AID 720580. hit rate 0.46% among 330,000; active means well fitted inhibition curve with a large enough effect; inconclusive means small, poorly fitted or top-dose-only effect; inactive means no such curve, though single readings can be large or run the other way; tested in A549 cells; further: nearly all actives have a fitted effect of over 30% in size; inactives centre near -10
# * = called active by the depositor; i = inactive; ? = inconclusive; nt = no result given; & = joins results of further samples; [ ] = dose if it differs, or a comment. On the % scale 0 is the no-effect control and ±100 the full control effect; potency means the concentration at half of the fitted maximal effect.
# Results follow in this order: VACV mCherry inh	VACV Venus inh
> CN1C[C@H]2CON(C)[C@H]2C[C@H]1c1cccc(Br)c1
→ -14%	-1%
> Cc1c(N2C(=O)CSC23C(=O)Nc2ccccc23)c(=O)n(-c2ccccc2)n1C (configuration not stated)
→ -12%	-11%
> CCOc1ccc(Cc2n[nH]c(=S)n2Cc2ccccc2)cc1
→ -4%	-19%
> O=C(NCC1CCOCC1)c1cccc2c(-c3cccnc3)coc12
→ 6%	2%
> O=C(NC(=S)Nc1cccnc1)c1ccccc1
→ -4%	0%
> Cc1ccc(NS(=O)(=O)c2cc(C(=O)OCC(=O)NCC3CCCO3)ccc2C)cc1 (configuration not stated)
→ 3%	3%
> Fc1ccc(N2CN(Cc3cccnc3)CNC2=S)cc1
→ i	-3%
> Cc1noc(C)c1C(=O)Nc1nc2ccc(S(C)(=O)=O)cc2s1
→ i	-2%
> Cc1cc([N+](=O)[O-])nn1CC(=O)N(C)Cc1ccccc1
→ -14%	-10%
> C/C(=C\C(=O)N1CCc2ccccc21)C(=O)O
→ -8%	-5%
> c1ccc(C2=NNC(=NCc3ccc4c(c3)OCO4)SC2)cc1
→ -10%	-7%
> Cc1cc(C)n(CCC(=O)N/N=C/c2ccc(O)cc2)n1
→ -10%	-4%
> CC(C)C(c1nnnn1Cc1ccccc1)N(CCCO)Cc1cc2cc3c(cc2[nH]c1=O)OCO3 (configuration not stated)
→ nt	?
> Cc1ccc(CNc2cc(C(=O)O)ccc2C)s1
→ i	-16%
> COc1cccc(N2CC(NC(=O)COc3ccc4ccccc4c3)CC2=O)c1 (configuration not stated)
→ -3%[7.34 µM]	-4%[7.34 µM]
> Cc1ccc(C(=O)Nc2cccc(C(O)c3ccccc3)c2)cc1 (configuration not stated)
→ -18%	-27%
> Cc1ccc(S(=O)(=O)c2nc(S(C)(=O)=O)sc2N2CCOCC2)cc1
→ -7%[7.34 µM]	-4%[7.34 µM]
> CN(Cc1cc(Cl)cc(Cl)c1)[C@H]1C[C@H]2c3[nH]c4ccccc4c3CCN2C(=O)[C@H]1CO
→ -17%	-22%
> COc1ccc(S(=O)(=O)N2CC(C(=O)O)Oc3ccc(Cl)cc32)cc1 (configuration not stated)
→ -15%	-8%
> CCN(CC(=O)Nc1ccc(NC(C)=O)cc1)C(=O)CSCc1c(C)noc1C
→ i	-11%
> COc1ccccc1CC(=O)NNS(=O)(=O)c1ccc([N+](=O)[O-])cc1
→ i	-8%
> CCN1CCN(CCCNC(=O)CS(=O)(=O)Cc2nc(-c3ccccc3C)oc2C)CC1
→ -14%	-4%
> COc1ccc(OC)c(C(c2nnnn2C(C)(C)C)N2CCc3ccccc3C2)c1 (configuration not stated)
→ ?	?
> CC(Nc1nc(-c2ccc(F)cc2)cs1)c1nc2cc(Cl)c(N3CCCCC3)cc2n1CCOCCO (configuration not stated)
→ ?	?
> COc1cccc(N(C(=O)Cn2nnc(-c3cccs3)n2)C(C(=O)NC2CCCCC2)c2ccncc2)c1 (configuration not stated)
→ -10%	-2%
> CC(C)CNC(=O)C1(C)CCCCCN1C(=O)c1csnn1 (configuration not stated)
→ 28%	3%
> CC(=O)N(CN1C(=O)c2ccccc2C1=O)c1cccc(C)c1
→ i	-11%
> Cc1cc(NC(=O)CN2CCCCC2C)no1 (configuration not stated)
→ -13%	-8%
> O=S(=O)(c1cccc(C(F)(F)F)c1)N1CCC(O)(c2cccnc2)CC1
→ -18%	-11%
> Clc1ccc(-c2nnc(C3CCCCC3)o2)cc1
→ -15%	-8%

# Shown as comma-separated lines: part of the list above.
mol,VACV mCherry inh,VACV Venus inh
CC(C)C(c1nnnn1Cc1ccccc1)N(CCCO)Cc1cc2cc3c(cc2[nH]c1=O)OCO3 (configuration not stated),nt,?
Cc1ccc(CNc2cc(C(=O)O)ccc2C)s1,i,-16%

# Next structures.
# Results follow in this order: VACV mCherry inh	VACV Venus inh
> CCC(C)NC(=O)CCC(=O)NNc1nc2ccccc2c2nc(C)nn12 (configuration not stated)
→ -6%&-7%	-4%&-5%
> Cc1sc2ncnc(SCC(=O)NC3CCCC3)c2c1C
→ -7%	-19%
> COc1cc(C(=O)NNC(=O)CCOc2ccccc2)cc(OC)c1OC
→ -11%	-13%
> Cc1ccc(C(c2nnnn2C2CCCC2)N2CCN(c3nc4ccccc4s3)CC2)cc1 (configuration not stated)
→ i	-7%
> COc1ccccc1CCNC(=O)C(=O)NCC1OCCN1S(=O)(=O)c1cc(F)ccc1F (configuration not stated)
→ i	-12%
> CC(=O)c1cc(C#N)c(N(C)Cc2ccccc2)nc1C
→ -4%	-7%
> N#C/C(=C\c1cn(Cc2ccccc2F)c2ccccc12)C(=O)NCc1ccco1
→ -24%	-6%
> CCC(CC)Nc1ccc(C(CC(N)=O)NC(=O)Cc2ccc(Br)cc2)cc1[N+](=O)[O-] (configuration not stated)
→ -3%	?
> Cc1ccccc1Cn1c(=O)n(CCc2ccccc2)c(=O)c2c(C)c(C)sc21
→ -4%	7%
> CC1CCN(S(=O)(=O)c2ccc3c(ccc(=O)n3CC(=O)NCc3ccccc3)c2)CC1
→ -21%	-11%
> N#Cc1c(N2CCOCC2)nsc1-c1ccccc1
→ -20%	-6%
> Cc1ccc(-n2nc(C)c3c(C)c(CCC(=O)O)c(C)nc32)cc1
→ -12%	-10%
> COc1cc(-c2cc3nc(NCCc4ccncc4)ccn3n2)cc(OC)c1OC
→ 25%	-2%
> C/C(=N/Oc1nc(C)cc(C)n1)c1ccc(F)cc1
→ nt	-7%
> Cc1ccc(N2C(=O)NC(=O)/C(=C/c3cnn(-c4ccc(C)cc4)c3)C2=O)cc1
→ -15%	1%
> COc1ccc(NC(=O)C2(C)Cc3c(-c4ccc(N(C)C)cc4)ccnc3O2)cc1OC (configuration not stated)
→ -13%	-5%
> C=C1CSc2nc(=O)c3c(C)c(C)sc3n21
→ -11%	-12%
> O=C(O)c1cc([N+](=O)[O-])ccc1N1CCC(Cc2ccccc2)CC1
→ i	-12%
> CCCCc1c(C)nc2cc(-c3ccco3)[nH]n2c1=O
→ -9%	-24%
> CN(c1ccccc1C(N)=O)S(=O)(=O)c1ccccc1
→ nt	-20%
> COc1ccc(S(=O)(=O)N2CCN(CC(=O)c3[nH]c(C)c(C(C)=O)c3C)CC2)cc1OC
→ 5%	-8%
> O=C(CSc1nnc(CNC(=O)c2c(F)cccc2F)o1)Nc1ccc2c(c1)OCO2
→ i	-12%
> COc1ccc(-c2nc3c(c(SCC(=O)Nc4ccccc4F)n2)Cc2cc(C)ccc2O3)cc1
→ -7%	-8%
> CCOc1ccc2oc(C(=O)N(CC)CC(=O)Nc3c(F)cccc3F)c(C)c2c1
→ i	-21%
> COc1cc(NC(=O)c2ccc(-c3cnn(C)c3)c3ccoc23)cc(OC)c1OC
→ 31%[activator]	-4%
> CN1CCN(C2=C(Cl)C(=O)N(c3ccc(Cl)c(Cl)c3)C2=O)CC1
→ -16%	-17%
> Cc1cc(C)n(CCCN2C(=O)c3cccc4cccc(c34)C2=O)n1
→ -14%	-19%
> CCCCSc1nc2sc3c(c2c(=O)n1-c1ccc(C)cc1)CCN(C)C3
→ -2%	-19%
> Clc1ccc(CSC(Cn2ccnc2)c2ccc(Cl)cc2Cl)cc1 (configuration not stated)
→ -2%&-9%	?
> COc1ccccc1CNc1nc(NCc2ccc(NC(C)=O)cc2)c2sccc2n1
→ -17%	-23%
> CC(C)(C)N1C(=O)NC(=O)/C(=C\c2ccc3c(c2)CCN3CCCCl)C1=O
→ -3%[7.34 µM]	-13%[7.34 µM]
> Cc1ccccc1Cn1cc(NC(=O)COc2ccccc2)cn1
→ nt	-9%
> Cn1c(=O)cc(OCCCC(=O)NCc2cccnc2)c2ccccc21
→ -17%	3%
> CC(=O)C1=C(O)C(=O)N(Cc2ccccc2)C1c1ccccc1F (configuration not stated)
→ nt	14%
> COc1ccc(C(=O)C2CCCN(C(=O)CCc3scnc3C)C2)c(C)c1 (configuration not stated)
→ -7%	-16%
> COC/C=C/C1=CC2=CC(=O)C(C)(OC(=O)c3cnc4ccccc4n3)C(=O)C2=CN1c1ccc(OC)cc1 (configuration not stated)
→ ?	-3%
> CC[C@H]1OC(=O)[C@H](C)[C@@H](O[C@H]2C[C@@](C)(OC)[C@@H](O)[C@H](C)O2)[C@H](C)[C@@H](O[C@@H]2O[C@H](C)C[C@H](N(C)C)[C@H]2O)[C@](C)(O)C[C@@H](C)C(=O)[C@H](C)[C@@H](O)[C@]1(C)O
→ -13%	-9%&-2%
> CNS(=O)(=O)c1cn(CC(=O)Nc2cccc(OC)c2)cc1S(=O)(=O)NC
→ -2%	1%
> CN(C)C(=O)COc1ncnc2scc(-c3ccc(F)cc3)c12
→ 4%	-2%
> CC(=O)c1cc(CN2CCC(n3nccc3NC(=O)c3ccccc3)CC2)cs1
→ -4%	-7%
> COc1ccc(-c2nnn3c2nc(NCCc2ccc(OC)c(OC)c2)c2ccccc23)cc1
→ -11%	-10%
> Cc1nc(SCC(=O)Nc2ccccc2Cl)oc1C
→ -3%	-11%
> Cc1cc(S(=O)(=O)NCC(c2ccc(F)cc2)N2CCN(C)CC2)ccc1F (configuration not stated)
→ -11%	-7%
> COC(=O)c1ccc2nc(-c3ccc(C)cc3)c(Cc3ccsc3)n2c1
→ -14%	8%
> O=S(=O)(Nc1ncccn1)c1ccccc1
→ i	4%
> C#CCN1C=C(C(=O)OCC)C(C)NS1(=O)=O (configuration not stated)
→ -5%	-2%
> O=[N+]([O-])c1ccc(OCC(O)CN(C2CCCCC2)C2CCCCC2)cc1 (configuration not stated)
→ i	-19%
> COc1ccc(OC)c(NS(=O)(=O)c2cc3c(cc2Cl)N(C(C)=O)CCO3)c1
→ -18%	-5%
> COc1ccc(C(=O)c2cn(Cc3ccccc3OC)c3cc4c(cc3c2=O)OCO4)cc1
→ -1%	-6%
> Cc1cccc(Nc2nnc(SCC(=O)NC(=O)Nc3ccc4c(c3)OCCO4)s2)c1
→ i	-20%
> COc1ccc(CN2C(=O)c3c(c(C)n(C)c3C)C2C(=O)NC2CCC(C)CC2)cc1 (configuration not stated)
→ 1%	4%
> CC(C)c1nc(=S)n(-c2ccccc2)[nH]1
→ -9%	4%
> CCc1nc2ccc(C(=O)N(C)Cc3ccco3)cn2c1N(C)C(=O)Cc1ccccc1
→ 13%	16%
> CC(=O)c1sc(NC(=O)CCS(=O)(=O)c2ccc(F)cc2)nc1C
→ -19%	?
> O=C(NCC(c1ccco1)N1CCOCC1)c1ccc(C(F)(F)F)cc1 (configuration not stated)
→ -13%	-11%
> Cc1nc([N+](=O)[O-])cn1CC(=O)Nc1ccc(Cl)cc1
→ -9%	6%
> CCOC(=O)N1CCC(N2C(=O)c3ccccc3C2Nc2ccc(S(=O)(=O)N3CCOCC3)cc2)CC1 (configuration not stated)
→ 4%	-13%
> O=C(CCc1n[nH]c(=O)[nH]c1=O)N/N=C/c1ccc(Br)o1
→ -6%	-11%
> CCC(C)C(NC(=O)c1ccc(Cl)cc1Cl)C(=O)O (configuration not stated)
→ -14%	5%
> O=C(CN1CCN(CC(=O)Nc2ccccc2F)CC1)Nc1ccc2c(c1)OCCO2
→ -5%	-7%

# (next part)
# Results follow in this order: VACV mCherry inh	VACV Venus inh
> O=C(CSc1nc2ccc(Cl)cc2[nH]1)NCCc1ccccc1
→ -17%	-16%
> COc1ccccc1C(=O)OCn1nnc2ccccc2c1=O
→ 21%	7%
> CCc1ccc2oc(-c3cc(N)cc(C)c3O)nc2c1
→ ?	-13%
> O=C(COc1ccccc1F)N1CCN(S(=O)(=O)/C=C/c2ccccc2)CC1
→ -11%	-14%
> CCNc1ccc(C(=O)O)cc1N
→ -12%	7%
> C=CCNc1nc2cc(-c3cccc(Cl)c3)sc2c(=O)n1C
→ 14%	-20%
> O=C(NCC1CCN(c2ccc(S(=O)(=O)N3CCOCC3)cc2)CC1)c1cccc(Cl)c1
→ ?	-20%
> O=C(O)c1cc2ncc(-c3[nH]ncc3[N+](=O)[O-])cn2n1
→ i	-12%
> COc1cc(-c2cc(-c3ccc(O)cc3)nc(N)c2C#N)ccc1O
→ -22%	?
> COc1ccc(/C=C/C(=O)NCC2Cc3cc(Cl)cc(-c4ncccn4)c3O2)cc1 (configuration not stated)
→ -8%	-7%
> COc1ccc(C=O)c(OCc2cn(CC(=O)c3ccc(O)cc3)nn2)c1
→ i	-6%
> O=[N+]([O-])c1ccc(N2CCOCC2)c2c1no[n+]2[O-]
→ ?	55%[activator]
> CCOc1ccc(CCNC(=O)c2cc([N+](=O)[O-])ccc2N2CCOCC2)cc1OCC
→ 0%	-23%
> CCn1c(=NC(=O)CSC(C)=O)sc2ccccc21
→ nt	-27%
> O=Cc1cnc2ccccc2c1-c1ccccc1
→ i	-10%
> CCOc1ccc(-n2c(C)cc(/C=N/Nc3nc(C)cc(=O)[nH]3)c2C)cc1
→ -10%	-6%
> COc1ccc(C[C@@H]2C(=O)N[C@H](C)C(=O)N(C)[C@@H]3Cc4ccc(cc4)Oc4cc(ccc4O)C[C@H](C(=O)N[C@@H](C)C(=O)N[C@H](C)C(=O)N2C)N(C)C3=O)cc1
→ 158µM*	0.28µM*
> COC(=O)CSc1nccc(-c2ccc(F)cc2)c1C#N
→ 14%	2%
> CCOC(=O)c1[nH]c(C)c(CCC(=O)Nc2ccc(C)cc2Cl)c1C
→ -12%	-5%

# Six compounds drawn at random from the list so far:
# Results follow in this order: VACV mCherry inh	VACV Venus inh
> O=C(CSc1nc2ccc(Cl)cc2[nH]1)NCCc1ccccc1
→ -17%	-16%
> CCOC(=O)c1[nH]c(C)c(CCC(=O)Nc2ccc(C)cc2Cl)c1C
→ -12%	-5%
> CCNc1ccc(C(=O)O)cc1N
→ -12%	7%
> O=[N+]([O-])c1ccc(N2CCOCC2)c2c1no[n+]2[O-]
→ ?	55%[activator]
> O=Cc1cnc2ccccc2c1-c1ccccc1
→ i	-10%
> COc1ccccc1C(=O)OCn1nnc2ccccc2c1=O
→ 21%	7%
